TRPML1 agonist: activates the human TRPML1 channel. TRPML1-expressing cells, Ca2+ dye fluorescence, FDSS; host cell line not named in the record; reference of the full effect not given here. activation, % (no concentration beside the values). 0.12% of 410,000 active. AID 624414; in the data active = activation above about 50%; inconclusive = about 30% to 50%; inactive = below about 30%; also: 0% is about no effect; the text of the record puts the active cut at 80%
Target sequence (Q9GZU1 whole entry, looked up): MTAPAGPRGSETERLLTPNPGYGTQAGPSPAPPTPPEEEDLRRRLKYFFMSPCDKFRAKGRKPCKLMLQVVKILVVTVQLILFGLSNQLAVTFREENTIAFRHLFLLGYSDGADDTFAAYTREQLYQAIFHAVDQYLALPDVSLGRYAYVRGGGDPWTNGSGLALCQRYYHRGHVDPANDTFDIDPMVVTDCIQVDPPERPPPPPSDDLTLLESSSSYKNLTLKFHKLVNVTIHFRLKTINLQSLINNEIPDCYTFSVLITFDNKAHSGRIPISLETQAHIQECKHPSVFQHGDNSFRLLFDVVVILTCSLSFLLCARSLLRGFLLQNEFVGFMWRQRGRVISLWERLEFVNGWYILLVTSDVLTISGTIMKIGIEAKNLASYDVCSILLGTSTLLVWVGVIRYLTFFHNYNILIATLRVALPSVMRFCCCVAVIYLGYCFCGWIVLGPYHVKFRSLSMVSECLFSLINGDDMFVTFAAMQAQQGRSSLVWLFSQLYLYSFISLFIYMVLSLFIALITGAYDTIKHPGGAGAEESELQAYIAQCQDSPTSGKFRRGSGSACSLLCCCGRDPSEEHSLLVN
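In this qHTS format, compounds were pin-transferred onto Ca8-dye-loaded TRPML1-DL cells induced with Tet overnight, and intracellular Ca2+ fluorescence was recorded kinetically for 110 s after a 10 s baseline. A subsequent 4uM final 54-4 (EC80) addition followed by a second 110 s read served as the antagonist phase.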
Six1-Eya2 blk: Six1/Eya2 interaction inhibition. activity change, % (concentration not given with the values). AID 651725. AlphaScreen GST-Six1/His-Eya2 binding, biochemical; hits give low values; control for the full effect not named in the record. 0.56% of 360,000 active. Q15475+O00167; in the data active = activity change below about -65%; inconclusive = about -30% to -65%; inactive = above about -30%; also: % is scaled to controls: 0 for no effect and ±100 for the full control effect
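GST-Six1 + His-Eya2 (5X stock: 250/500 nM); Tris pH 8.0, 300 mM NaCl, 0.05% BSA, 0.02% Tween 20; GSH donor/Ni acceptor beads; 1 h 37 °C dark; AlphaScreen readout.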
D2 ag: activates the human D2 dopamine receptor; P14416; DiscoveRx PathHunter D2 beta-arrestin, luminescence, 90 min; 100% = 57 uM dopamine signal; activation, % (concentration not given with the values); 0.084% of 360,000 active; in the data active = activation above about 40%; inconclusive = about 15% to 40%; inactive = below about 15%; also: compound concentration not given in the record; the text of the record calls up to 30% inactive
Target sequence (P14416 whole entry, looked up): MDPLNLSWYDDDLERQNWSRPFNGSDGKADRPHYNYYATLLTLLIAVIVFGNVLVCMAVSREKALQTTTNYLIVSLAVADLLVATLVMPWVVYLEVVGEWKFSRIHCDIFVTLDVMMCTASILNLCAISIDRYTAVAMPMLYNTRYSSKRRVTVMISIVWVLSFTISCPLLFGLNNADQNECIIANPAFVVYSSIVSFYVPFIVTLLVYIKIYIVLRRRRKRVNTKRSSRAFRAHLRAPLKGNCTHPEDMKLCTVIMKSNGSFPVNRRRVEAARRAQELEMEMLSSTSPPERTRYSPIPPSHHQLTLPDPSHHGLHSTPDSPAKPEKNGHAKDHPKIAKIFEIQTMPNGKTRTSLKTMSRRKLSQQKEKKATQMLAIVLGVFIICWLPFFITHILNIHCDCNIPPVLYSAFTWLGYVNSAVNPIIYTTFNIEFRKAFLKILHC
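DiscoveRx PathHunter D2 beta-arrestin cells (2,100/well) attached overnight, then compound-stimulated 90 min at 37 C in HBSS/10 mM HEPES/0.1% Tween-20 buffer; beta-galactosidase complementation read by luminescence after 1 h at ambient temperature. Dopamine 57 uM final (EC100) as control.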
PINK1 modulator: PINK1 expression modulation. PINK1 immunofluorescence, high-content cytometry, 24 h. Potency, µM (series often up to 76.6 µM), for the others: at the top dose activation (PINK1 increase), actives largely listed as activators. 0.2% of 410,000 active. AID 624263; active = well fitted activation curve with a large enough effect; inconclusive = small, poorly fitted or top-dose-only effect; inactive = flat fitted curve, though single readings scatter; cell line not stated here;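 also: potency is read from the fitted curve at half-maximal effect; % of control where 0% means no effect; nearly all actives have a fitted effect of over 65% in size; a mitochondrial uncoupler was the plate control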
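PINK1 protein level read as immunofluorescence by microplate cytometer in a fixed, stained stable cell line after 24 h exposure to five compound concentrations, with CCCP as control.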
CtBP-E1A inh: inhibitors of CtBP/E1A interaction. AlphaScreen GST-E1A/His-CtBP binding, 1536-well; hits give low values; control for the full effect not named in the record. activity change, % (no concentration beside the values). 0.49% of 340,000 active; in the data active means activity change below about -65%; inconclusive means about -30% to -65%; inactive means above about -30%; also: % is scaled to controls: 0 for no effect and ±100 for the full control effect; compound concentration not given in the record
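Homogeneous bead-based format: GST-tagged E1A captured on glutathione donor beads, His-tagged CtBP on nickel acceptor beads; compounds precede bead addition by 2 h at 37 °C.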
D2 PAM: potentiates the human D2 dopamine receptor allosterically | P14416 | DiscoveRx D2 beta-arrestin cells, luminescence, 90 min; 100% = 57 uM dopamine signal | potentiation, % (test concentration not listed) | 0.23% of 360,000 active; active = potentiation of 50% or more; inconclusive = 30% to 50%; inactive = 30% or less;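 also: compound concentration not given in the record; tested on top of an EC20 dose of dopamine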
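PathHunter D2 cells, attached overnight at 37 deg C, received compound in DMSO plus dopamine at EC20 (50 nM final) for 90 min at 37 deg C. Beta-arrestin recruitment was read as luminescence after 1 h with detection reagent at ambient temperature.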
The depositor's hits bear a star; ? = inconclusive; / = no result given; & = joins results of further samples; [ ] = another dose, or the depositor's remark.

SMILES,TRPML1 agonist,Six1-Eya2 blk,D2 ag,PINK1 modulator,CtBP-E1A inh,D2 PAM
O=C(Nc1nnc(S(=O)(=O)N2CCCC2)s1)c1ccccc1Br,-1.1&1.9,-8,1.5,3.4%&1.6%,-1,2
COc1cc(OC)c(NC2c3ccccc3C(=O)N2c2cc(C)ccn2)cc1Cl (configuration not stated),-0.5,1,-2.4,18%,1,2
CCCCn1cnc2c(oc3nc4c(cc32)CCCC4)c1=O,-0.1,-11,-3.9,-1.7%,/,-22
CC1CCN(c2c(NCC3CCC(C(=O)NCc4ccccc4Cl)CC3)c(=O)c2=O)CC1 (configuration not stated),1.5,-3,-5.1,-0.1%,-1,-8
COc1ccc(CN(CC2CCC(C(=O)O)CC2)C(=S)Nc2cc(Cl)ccc2OC)cc1 (configuration not stated),-0.2,7,-4.2,3.6%,-3,-9
CCOC(=O)c1ccc(NC(=S)NNC(C)(C)C)cc1,0.5,-2,-0.3,2.0%,/,-4
CCOC(=O)CSc1ccc(C(=O)N2CCN(C)CC2)cc1[N+](=O)[O-],-0.6,5,-0.8,1.4%,12,9
CCc1ccc(NC(=O)CO/N=C(\C)c2cc3ccccc3o2)cc1,-1.0,7,0.0,-0.8%,10,-8
O=C(Nc1cc2c(cc1Cl)OCCCO2)c1ccccc1,-0.7,3,-2.2,-1.1%,7,4
Clc1cc2c(cc1/C=N/Nc1nc(N3CCOCC3)nc(N3CCOCC3)n1)OCO2,0.1,1,-1.5,-1.8%,-3,-4
COC(=O)CSc1nnc(Cc2cc(=O)[nH]c(=O)[nH]2)n1-c1cccc(OC)c1,1.2,-8,-1.4,-1.0%,-14,-12
Cn1ccsc1=NC(=O)c1ccccc1F,1.9,0,-3.7,2.4%,7,-9
Cn1c([N+](=O)[O-])cnc1COC(N)=O,0.2,1,-5.8,-0.1%,-4,-7
CS(=O)(=O)N(CC(=O)NCc1ccco1)c1ccccc1Cl,-1.0,-2,-5.9,-3.7%,-3,-18
O=C(O)CN1C(=O)C(=O)N(Cc2ccc(Cl)cc2Cl)C1=O,-1.2,5,-3.3,-2.1%,11,-8
O=c1cc(N2CCCCC2)nc2n1CCCS2,-0.2,1,4.9,7.6%[38.3 µM],-11,-1
Cc1ccc(S(=O)(=O)N2CCN(C(=O)N3CCOCC3)C2C(C)C)cc1 (configuration not stated),0.2,4,-2.8,-1.3%,8,-12
O=C(Nc1ccc(F)c(Cl)c1)c1ccc2sc([C@H]3C[C@H](O)[C@@H](CO)O3)nc2c1,-0.1,0,1.5,5.2%,-11,6
O=C(NNC(=S)Nc1ccccc1)c1ccco1,-0.5,3,-4.8,-0.5%,7,-2
COc1cc(F)ccc1S(=O)(=O)n1c(C)nc2ccccc21,/,-4,-3.0,1.9%,/,-14
Cc1nc(N2CCCCC2)c(C#N)c(C)c1[N+](=O)[O-],-0.3,-2,0.5,-2.7%,/,-10
Cc1cc(C)n(Cc2ccc(Cl)nc2)n1,-0.6,-5,-7.0,-1.0%,0,-5
CC(=O)Nc1c(O)c2cccc3c2n(c1=O)CCC3,-0.5,11,-4.8,1.6%,11,2
CN(Cc1ccc(C(F)(F)F)cc1)C(=O)[C@H]1O[C@@H](n2cnc3c(N)ncnc32)[C@H](O)[C@@H]1O,-0.2,7,-2.6,1.5%,-9,-8
Cc1ccc(SCC(=O)NC(=O)Nc2ccc3c(c2)OCCO3)c(C)c1,1.1,-1,0.4,1.3%,2,4
O=C(CN1C(=O)C2(OCCO2)c2cc(Br)ccc21)NO,-0.4,2,-2.6,5.4%,1,2
O=c1[nH]c2ccccc2cc1CN(Cc1ccco1)S(=O)(=O)c1ccccc1,-1.2,-13,-0.3,6.3%,-6,2
CC(C)c1ccccc1,-0.3,4,-1.2,0.1%,2,-1
CC(=O)Nc1cc(-c2nn(C)c(=O)c3ccccc23)ccc1N1CCCCC1,0.2,-3,-0.1,/,-12,-20
Cn1c(SCC(=O)Nc2ccc3c(c2)oc2ccccc23)nnc1-c1ccccc1,-0.2&-0.6,-6&-1,1.0,-0.7%,-9&4,3&-2

Ordered by formula weight (ascending): some entries from above
SMILES,TRPML1 agonist,Six1-Eya2 blk,D2 ag,PINK1 modulator,CtBP-E1A inh,D2 PAM
CC(C)c1ccccc1,-0.3,4,-1.2,0.1%,2,-1
Cn1ccsc1=NC(=O)c1ccccc1F,1.9,0,-3.7,2.4%,7,-9
CC(=O)Nc1cc(-c2nn(C)c(=O)c3ccccc23)ccc1N1CCCCC1,0.2,-3,-0.1,/,-12,-20
Cc1ccc(S(=O)(=O)N2CCN(C(=O)N3CCOCC3)C2C(C)C)cc1 (configuration not stated),0.2,4,-2.8,-1.3%,8,-12

A few values from above:
Six1-Eya2 blk with `Cn1c(SCC(=O)Nc2ccc3c(c2)oc2ccccc23)nnc1-c1ccccc1` → -6&-1
Six1-Eya2 blk with `O=C(O)CN1C(=O)C(=O)N(Cc2ccc(Cl)cc2Cl)C1=O` → 5

The main list resumes with the four entries that preceded the break.
SMILES,TRPML1 agonist,Six1-Eya2 blk,D2 ag,PINK1 modulator,CtBP-E1A inh,D2 PAM
O=c1[nH]c2ccccc2cc1CN(Cc1ccco1)S(=O)(=O)c1ccccc1,-1.2,-13,-0.3,6.3%,-6,2
CC(C)c1ccccc1,-0.3,4,-1.2,0.1%,2,-1
CC(=O)Nc1cc(-c2nn(C)c(=O)c3ccccc23)ccc1N1CCCCC1,0.2,-3,-0.1,/,-12,-20
Cn1c(SCC(=O)Nc2ccc3c(c2)oc2ccccc23)nnc1-c1ccccc1,-0.2&-0.6,-6&-1,1.0,-0.7%,-9&4,3&-2
COc1ccc(CN2C(=O)C(CC(=O)NCCCN(C)C)CC(C(=O)N3CCCCCC3)=C2C)cc1 (configuration not stated),-0.5,20,/,-0.5%,0,/
CCOC(=O)C1=C(CNC(C)(C)CC(C)(C)C)NC(=O)NC1c1cccc([N+](=O)[O-])c1 (configuration not stated),/,-11,-5.9,2.8%,-10,-8
CC(C)Oc1ccc(C(=O)/C=C2/C(=O)Nc3ccccc32)cc1,-0.2,4,5.2,-0.3%,2,3
CC1Cc2ccccc2N1C(=O)c1cnc2n(c1=O)CCS2 (configuration not stated),-0.1,5,-1.9,1.6%,0,-12
Cc1cc(NCC(=O)Nc2ccc(C)c(S(=O)(=O)N3CCOCC3)c2)ccc1Br,-0.5,-14,-3.6,4.7%,-3,-7
O=C(COc1ccc(S(=O)(=O)N2CCOCC2)cc1Cl)NCc1ccco1,0.7,7,1.0,-3.0%,-2,-5
CCn1c(O)c(/C=C2\C=Nc3ccccc32)sc1=Nc1ccc(C)cc1,1.1,-4,-2.3,/,6,10
Cc1ccc(-n2nc3c(c2NC(=O)c2ccco2)CS(=O)C3)c(C)c1 (configuration not stated),0.3,2,-4.0,-4.2%,-9,2
CC(C)OP(=O)(OC(C)C)C(C)NC(=O)Cc1ccccc1 (configuration not stated),0.3,0,7.8,-1.6%,6,-1
O=C(Nc1ccccc1Br)c1cc[n+]([O-])cc1,0.3,8,3.9,-0.7%,8,2
O=C(CN1C2CCC1CC(NC(=O)Nc1ccccc1)C2)NCc1ccco1 (configuration not stated),0.4,2,-0.4,0.2%,-4,-21
Cc1ccc(/C=C/C(=O)O)cc1S(=O)(=O)NCCCO,-0.4,5,-1.5,0.7%,10,-1
O=C(c1ccc(Cl)cc1)C1CCCN(Cc2cccn2-c2cccnc2)C1 (configuration not stated),2.4,-13,-1.7,1.4%,8,-19
COc1ccc2c(c1)c(=O)c(C(=O)O)c(-c1ccc3c(c1)OCO3)n2C,0.6,8,-1.9,-0.4%,-2,-3
Cc1ccc(S(=O)(=O)N(C)CC(=O)OCc2nnc(-c3ccccc3)o2)cc1,-1.4,7,0.3,0.2%,0,8
Cc1cc(C)n2[nH]c(=O)cc2n1,-0.8,2,0.4,0.1%,7,1
CC(Oc1cccc(Cl)c1)C(=O)NCCCCc1ccccc1 (configuration not stated),2.0,-3,-2.4,0.9%,6,-19
OC(c1ccc(-c2ccccc2)cc1)c1ncc(-c2ccccc2F)[nH]1 (configuration not stated),-0.7,-9,-6.3,5.0%,-11,-12
CCOC(=O)Nc1cc(C)ccc1OC,1.4,3,-1.4,0.2%,3,4
CC1CCN(C(=O)c2ccc(COc3ccccc3Cl)o2)CC1,2.5,-8,-1.9,0.8%,-3,-28
CC(C)CCNC(=O)c1ccc2c(SCC(=O)O)c3c(nc2c1)CCC3,-0.2,3,0.1,-1.2%,-2,-1
Cc1cc(NC(=O)CSc2nc3ccccc3n2CCC#N)no1,-0.2,5,-5.2,1.2%,-4,5
CCN(CC)c1ccc(/C=C(/C#N)c2nc3ccccc3[nH]2)c(OC(C)C)c1,23,-18,3.6,3.8%,-3,-2
CCOC(=O)C1=C[C@@H](C(C)C)N(S(=O)(=O)c2ccc(C)cc2)[C@H]1c1ccc(C(C)C)cc1,1.2,11,-6.4,0.9%,10,-7
CC(C)[C@H](NC(N)=O)C(=O)NCCc1ccc(Cl)cc1,-0.5,7,-4.0,2.7%,-16,-3
CCCCC(=O)Nc1ccc(Cl)cc1F,-1.0,-1,-5.0,0.0%,2,1
CCCS(=O)(=O)N1CCCC(C(=O)NCCCOCC)C1 (configuration not stated),0.1,7,0.7,2.0%,-3,1
O=C(CSc1nc2cc3c(cc2c(=O)n1CCC1=CCCCC1)OCO3)NCc1ccco1,-0.6,6,-4.1,11%,6,-15
O=c1c2ccccc2oc2ncccc12,-0.6,-6,-2.2,-2.2%,-19,11
O=C(COC(=O)CCc1ccc(S(=O)(=O)N2CCOCC2)cc1)Nc1cccc(Cl)c1,-0.2,1,3.5,1.7%,-7,8
CCc1noc(C)c1C(=O)Nc1nc(-c2ccc(Cl)cc2Cl)c(C)s1,2.5,0,-2.4,10%,-4,-7
O=Cc1cccc(Oc2ncccn2)c1,-0.5,1,-0.4,3.6%,4,2
COc1ccc(-c2c(C)nc3c(-c4ccccn4)cnn3c2N)cc1,0.1,-17,-3.2,3.4%,-1,-3
N#Cc1c(NC(=O)Cn2c(=O)oc3ccccc32)oc(-c2ccccc2)c1-c1ccccc1,0.6,-13,2.6,-0.5%,-12,-24
CCN(CC(=O)NCc1ccc(F)cc1)C(=O)Cc1c(F)cccc1Cl,0.8,4,0.4,1.6%,4,3
O=C(C1CCCCC1)N1CCN(c2nc(-c3ccc(F)cc3)cs2)CC1,1.2,-2,3.5,9.8%,2,1
Cc1n[nH]c(=S)n1/N=C/c1ccccc1,-1.1,6,-10,4.8%,7,7
CC(C)n1ncc2c(C(=O)N3CCN(c4ccccc4)CC3)cc(-c3ccccc3)nc21,4.1,-16,4.7,3.0%,?,-1
O=C1CC(c2ccc(F)cc2)SC(N(c2ccccc2)c2ccccc2)=N1 (configuration not stated),1.1,-14,-3.5,1.5%,-9,-8
